# Screening data: PubChem, National Center for Advancing Translational Sciences (NCATS)
# TrxR1 substrate = qHTS Assay for Substrates of Mammalian Selenoprotein Thioredoxin Reductase 1 (TrxR1): qHTS; Thioredoxin reductase 1, cytoplasmic (Rattus norvegicus), O89049; purified TrxR1 substrate turnover, NADPH consumption readout; Potency, µM (top dose mostly 114 µM), without a hit: at the top dose activity change, negative = substrate turnover; 390,000 tested, 0.01% active; AID 588456, 2011; also: potency is read from the fitted curve at half-maximal effect; nearly all actives have a fitted effect of over 50% in size
#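 Rat TrxR1, dispensed at 90 nM, was prereduced with 400 uM NADPH (final) for 5 min at ~22 deg C, then incubated with compound 15 min before 400 uM selenite. A first-read NADPH fluorescence drop versus no-compound background flagged substrates.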
# rTrxR1 inhibitor = qHTS Assay for Inhibitors of Mammalian Selenoprotein Thioredoxin Reductase 1 (TrxR1): qHTS; Thioredoxin reductase 1, cytoplasmic (Rattus norvegicus), O89049; recombinant rTrxR1, NADPH fluorescence consumption, selenite substrate; Potency, µM (top dose mostly 114 µM), for the others: top-dose activity change, negative = inhibition, actives largely listed as inhibitors; 390,000 tested, 1% active; also: potency is read from the fitted curve at half-maximal effect; nearly all actives have a fitted effect of over 65% in size
#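 Rat TrxR1 (90 nM in the dispensed reagent) was pre-reduced with 400 uM NADPH for 5 min at room temperature, then incubated with compound for 15 min. After 400 uM selenite was added, NADPH fluorescence (Ex 340/Em 450 nm) was followed for 8 min.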
# IDH1 R132H inh = qHTS for Inhibitors of mutant isocitrate dehydrogenase 1 (IDH1): qHTS | 390,000 tested, 0.093% active | IDH1-R132H enzyme, NADPH consumption, diaphorase/resazurin fluorescence | Potency, µM (series often up to 76.6 µM), for inactives: at the top dose activity change, negative = inhibition, actives largely listed as inhibitors; also: potency is read from the fitted curve at half-maximal effect; nearly all actives have a fitted effect of over 65% in size
#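 IDH1-R132H (0.5 ug/mL dispensed) in pH 7.5 Tris buffer was preincubated 30 min with compound, then given a substrate mix of 0.016 mM NADPH and 2 mM alpha-KG for 80 min at room temperature; remaining NADPH was read by diaphorase/resazurin fluorescence.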
# Pin1 inhibitor = qHTS Assay to Find Inhibitors of Pin1. Peptidyl-prolyl cis-trans isomerase NIMA-interacting 1 (Homo sapiens), Q13526. Pin1 FP peptide displacement, HiFluor488, 10 min. Potency, µM (series often up to 115 µM), for the others: at the highest dose activity, negative = inhibition, most hits filed as inhibitors. 390,000 tested, 0.009% active; active = well fitted inhibition curve with a large enough effect in the polarisation, with a control signal flat, not every such curve was filed as active; inconclusive = small, poorly fitted or top-dose-only effect, or effect the other way, or a change in a side signal; inactive = no such curve, though single readings can be large or run the other way; the % refers to the polarisation; also: potency is read from the fitted curve at half-maximal effect
# Target sequence (Q13526 whole entry, looked up): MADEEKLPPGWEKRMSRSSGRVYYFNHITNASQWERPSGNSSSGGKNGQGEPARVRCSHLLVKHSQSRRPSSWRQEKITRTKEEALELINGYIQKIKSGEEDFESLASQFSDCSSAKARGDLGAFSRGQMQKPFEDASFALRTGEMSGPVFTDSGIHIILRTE
# GLS inhibitor = qHTS for Inhibitors of Glutaminase (GLS) | GLS enzymatic activity, qHTS titration | AID 624170, 2012 | Glutaminase kidney isoform, mitochondrial (Homo sapiens), O94925 | Potency, µM (series often up to 45.5 µM), without a hit: at the top dose activity change, negative = inhibition, actives largely listed as inhibitors | 410,000 tested, 0.21% active; also: potency is read from the fitted curve at half-maximal effect
# Target sequence (O94925 whole entry, looked up, canonical isoform): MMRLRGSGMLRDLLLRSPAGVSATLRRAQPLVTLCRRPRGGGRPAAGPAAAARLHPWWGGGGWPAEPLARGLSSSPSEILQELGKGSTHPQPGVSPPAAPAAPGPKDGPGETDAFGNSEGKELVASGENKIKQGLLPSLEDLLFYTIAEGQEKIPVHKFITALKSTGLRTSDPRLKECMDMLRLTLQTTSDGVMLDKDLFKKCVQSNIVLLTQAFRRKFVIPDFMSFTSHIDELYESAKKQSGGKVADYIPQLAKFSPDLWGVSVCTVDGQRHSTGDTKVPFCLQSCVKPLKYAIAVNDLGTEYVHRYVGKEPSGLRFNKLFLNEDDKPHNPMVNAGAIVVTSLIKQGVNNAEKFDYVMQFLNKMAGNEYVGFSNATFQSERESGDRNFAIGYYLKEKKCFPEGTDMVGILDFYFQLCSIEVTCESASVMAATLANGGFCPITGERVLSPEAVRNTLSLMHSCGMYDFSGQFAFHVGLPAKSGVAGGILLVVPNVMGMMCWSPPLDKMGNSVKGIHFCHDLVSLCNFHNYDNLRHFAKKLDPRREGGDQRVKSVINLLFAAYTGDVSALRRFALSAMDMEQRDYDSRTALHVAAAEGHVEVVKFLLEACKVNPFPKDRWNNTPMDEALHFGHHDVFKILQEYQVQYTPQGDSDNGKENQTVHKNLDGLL
#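 hKGA in 45 mM KH2PO4 (pH 8.2), 0.02% Tween-20 with compound, then 1mM L-Glutamine (stock as added) plus glutamate oxidase/HRP/Amplex red coupling mix. Fluorescence read initially and after 30 min at RT; signal change reflects glutamate formation.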
# PI4K2A block = qHTS for small molecular inhibitors of PI4K2A | activity change, negative = inhibition, % at 76.9 µM | purified PI4K2A, ADP-Glo luminescence, 1 h; hits give low values | Phosphatidylinositol 4-kinase type 2-alpha (Homo sapiens), Q9BTU6 | 420,000 tested, 0.13% active; in the data active = activity change below about -50%; inconclusive = mostly about -30% to -49%;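 also: -100% = wells without enzyme as full effect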
#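 PI4K2A activity was measured by ADP-Glo luminescence: enzyme (4 ug/mL stock) and phosphatidylinositol (1.2 mM stock) in Tris pH 7.5/MgCl2/EGTA/Triton X-100 buffer were reacted with ATP (300 microM stock) for one hour at ambient temperature.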
# USP1-UAF1 inh = Inhibitors of USP1/UAF1: Primary Screen | AID 743255, 2014 | Ubiquitin carboxyl-terminal hydrolase 1 (Homo sapiens), O94782 | 390,000 tested, 0.23% active | Potency, µM (doses to about 57.1 µM), for the others: at the top dose activity change, negative = inhibition, actives largely listed as inhibitors | recombinant USP1/UAF1, Ub-Rhodamine cleavage fluorescence; also: potency is read from the fitted curve at half-maximal effect; nearly all actives have a fitted effect of over 60% in size; inactives centre near -12
#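 Step one: compound is pinned into 1nM USP1/UAF1 in HEPES pH 7.8 buffer with TCEP. Step two: 15 min room-temperature incubation. Step three: Ub-Rho (150nM final) starts cleavage, tracked by fluorescence over six one-minute reads.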
# PGK inhibitor = qHTS Assay to Find Inhibitors of Phosphoglycerate Kinase | PGK/GAPDH coupled, Kinase-Glo luminescence, 60 min | Phosphoglycerate kinase, glycosomal (Trypanosoma brucei brucei), P07378 | 380,000 tested, 0.043% active | Potency, µM (highest dose often 57.5 µM), for the others: at the highest dose activity change, negative = inhibition, most hits filed as inhibitors; also: potency is read from the fitted curve at half-maximal effect; nearly all actives have a fitted effect of over 60% in size
#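 Luminescent ATP detection (Kinase-Glo Plus) follows a 60-minute room-temperature incubation, with wells lacking PGK as controls. Buffer: 100 mM TEA (pH 7.6), 5 mM MgCl2, 0.01% Tween-20. Coupling enzyme GAPDH (100 nM final) supplies unstable 1,3-BPG in-well.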
# Numbers without * were called inactive; i = inactive; u = inconclusive; x = not tested or not shown; & = joins results of further samples; [ ] = dose if it differs, or a comment. Unless noted, calls follow the shape of the dose curve; as a rule, active = well fitted curve in the direction sought with a large enough effect; inconclusive = small, poorly fitted or top-dose-only effect, or another doubt; inactive = no such curve, though single readings can be large; an effect the other way counts as inactive or inconclusive. Unless noted, % is scaled to controls: 0 for no effect and ±100 for the full control effect.
SMILES,TrxR1 substrate,rTrxR1 inhibitor,IDH1 R132H inh,Pin1 inhibitor,GLS inhibitor,PI4K2A block,USP1-UAF1 inh,PGK inhibitor
CCOC(=O)c1cccc(-n2cccc2/C=C2\NC(=O)N(CC(=O)O)C2=O)c1,-2%[57.1 µM],-10%[57.1 µM],x,3%,-5%,3,x,-4%
CCOC(=O)c1sc(NC(=O)CSc2nc(C)cc(-c3ccccc3)n2)c(C#N)c1C,8%,18%,0%,-1%,5%,-6,-3%,2%
COc1ccc(-n2c(SCC(=O)C(C)(C)C)nc3c(sc(=S)n3-c3ccccc3)c2=O)c(OC)c1,7%[57.1 µM],0%[57.1 µM],0%,11%,0%,127,-11%,i
CCc1ccc(C2CC(=O)N3CN(c4ccccc4)CSC3=C2C#N)cc1 (configuration not stated),1%[57.1 µM],u,6%,-4%,15%,-9,-20%,i
O=C(O)C1CSC(c2ccc(O)c([N+](=O)[O-])c2)N1 (configuration not stated),-14%,16%[57.1 µM],9%,-2%,0%,-2,-12%,-8%
Cc1cccc(C(=O)Oc2ccccc2/C=N/NC(=O)c2ccc(NC(=O)C(C)(C)C)cc2)c1,-11%,-4%,0%,4%,7%,5,-6%,2%
CCOC(=O)c1sc(=S)n(C)c1NC(=O)c1ccc(F)cc1,-11%,u,-4%,-3%,-6%,-3,-1%,-10%
COc1ccc(NC(=O)CN(C)S(=O)(=O)c2ccc(Br)s2)cc1OC,u,u,-13%,5%,0%,-4,-5%,5%
Cc1nc2nc(NCc3cccc(Br)c3)[nH]n2c(=O)c1Cc1ccccc1,-1%,8%,1%,39%[activator],-4%,1,9%,i
COCC(=O)Nc1nnc(COc2ccc(Cl)cc2)s1,-9%,0%,1%,-4%,15%,1,-3%,2%
CCOC(=O)c1ccc(NC(=O)CC2COc3ccccc3O2)cc1 (configuration not stated),5%[57.1 µM],10%[57.1 µM],1%,-4%,0%,-1,-13%,-2%
CC(C)c1ccc(C(=O)CSc2ncn[nH]2)cc1,10%,-24%,10%,-6%,-2%,10,-15%,x
O=C(Nc1ccc2c(c1)CCC2)c1cccc(S(=O)(=O)Nc2ccccc2Cl)c1,-17%,-20%,-9%,3%,3%,2,-15%,1%
COc1ccc(CNC(=O)CN(c2ccccc2OC)S(=O)(=O)c2cccs2)cc1,2%,26%,1%,22%,1%,-3,-24%,i
Cc1c(N=Cc2ccc(Cl)o2)c(=O)n(-c2ccccc2)n1C,-2%[57.1 µM],u,2%,7%,-1%,9,-21%,-11%
O=C(CCCn1cnc([N+](=O)[O-])n1)Nc1ccc(Cl)cc1Cl,-17%,-32%,-4%,5%,7%,-2,5%,-1%
CN(Cc1c(F)cccc1Cl)C(=O)c1cnc2ccccc2n1,4%,5%,2%,0%,6%,2,u,i
COc1ccc(CNCc2cccc(Cl)c2)cc1,-11%,u,10%,u,-1%,-4,-19%,-2%
Cc1ccc(C(=O)n2c(-c3ccccc3)cnc2SCC(=O)Nc2ccccc2)cc1,-5%,-4%,3%,41%[activator],2%,28,-9%,3%
COCCn1c(SCC(=O)N(C(C)C)C(C)C)nnc1-c1cc2ccccc2cc1O,7%,15%,6%,-2%,-5%,-2,-11%,i
COC(=O)c1ccc(CSc2nnnn2C)o1,7%,16%,0%,-9%,8%,-5,-10%,-1%
Cc1ccc(OCc2nnc(NC(=O)c3cccnc3)s2)cc1,2%,18%,1%,6%,2%,-1,-21%,i
Cc1ccc(CNC(=O)c2c(Nc3c(C)cccc3C)sc(C(=O)c3ccccc3)c2N)cc1,3%[57.1 µM],16%[57.1 µM],0%,16%,-1%,-11,u,7%
CCC(CC)c1nn2c(=O)cc(COc3ccc(NC(=O)c4ccc(Cl)cc4)cc3)nc2s1,4%,10%,15%,5%,4%,-1,-20%,-4%
CCc1nnc(NC(=O)c2cccs2)s1,-5%[57.1 µM],-16%[57.1 µM],-5%,-2%,0%,-3,u,2%
CC1(C)[C@H](C(=O)O)N2C(=O)C[C@H]2S1(=O)=O,2%,3%,-16%,4%,9%,-6&-2,-21%,0%
CCOc1ccc(-c2csc(N)c2C(=O)OC)cc1,0%,6%,3%,-2%,-13%,-3,-21%,3%
O=[N+]([O-])c1ccc(NN=C2CCCCC2)c([N+](=O)[O-])c1,-11%,u,0%,27%,-5%,1,-5%,-4%
O=C(Nc1ccc(C(=O)OCc2cc(=O)n3nc(C4CC4)sc3n2)cc1)c1cccc(F)c1,0%[57.1 µM],8%[57.1 µM],14%,7%,2%,-3,u,-8%
COc1ccc(N/N=C(/C(N)=O)C2=NC(C)(C)Cc3ccccc32)cc1,-10%,8%[57.1 µM],-1%,-6%,14%,3,-22%,-12%
Cc1ccc(N2C(=O)C3C4C=CC(CNC(=S)Nc5ccc(F)cc5)(O4)C3C2=O)cc1 (configuration not stated),-12%,16µM*,-5%,16%,7%,5,-5%,i
CCNS(=O)(=O)c1ccc(C(=O)Nc2ccccc2)cc1,1%,23%,0%,0%,-13%,6,-14%,-4%
CC1CN(Cc2cc(=O)oc3cc(O)ccc23)CC(C)O1 (configuration not stated),340%[activator],u,2%,-7%,9%,2,u,-6%
Cc1cccc(S(=O)(=O)C(C#N)c2nc3ccccc3nc2N2CC(C)OC(C)C2)c1 (configuration not stated),-4%,-7%,-4%,-2%,65%[activator],-2,u,-3%
Cc1ccc(CNC(=O)c2c(Nc3ccccc3C)sc(C(=O)c3ccc(F)cc3)c2N)cc1,-3%[57.1 µM],8%[57.1 µM],4%,u,1%,-2,-25%,10%
CCSc1nnc2c(n1)[nH]c1c(C)cccc12,10%[57.1 µM],11%,10%,-1%,2%,-2,-8%,-5%
CC(=O)Nc1ccc(NC(=O)CN(c2cc(Cl)ccc2Cl)S(C)(=O)=O)cc1,4%,22%,-5%,-3%,0%,1,-22%,-4%
Cc1ccc(/C=C/C(=O)NCc2ccc3c(c2)OCO3)o1,-11%,u,-2%,-1%,u,-5,-20%,0%
Cc1nccn1C(c1ccccc1)c1ccccc1,4%,18%[57.1 µM],-5%,-10%,7%,-1,-9%,10%
COc1ccccc1C(CC(=O)Nc1ccccc1C)c1ccc(OC(C)C)cc1 (configuration not stated),-2%,21%,2%,1%,-5%,2,-24%,-4%

# Entries of single compounds, looked up by structure. Screens in order: TrxR1 substrate | rTrxR1 inhibitor | IDH1 R132H inh | Pin1 inhibitor | GLS inhibitor | PI4K2A block | USP1-UAF1 inh | PGK inhibitor
# Shown for CCNS(=O)(=O)c1ccc(C(=O)Nc2ccccc2)cc1 = 1% | 23% | 0% | 0% | -13% | 6 | -14% | -4%
# Shown for CC(=O)Nc1ccc(NC(=O)CN(c2cc(Cl)ccc2Cl)S(C)(=O)=O)cc1 = 4% | 22% | -5% | -3% | 0% | 1 | -22% | -4%
# Shown for Cc1cccc(S(=O)(=O)C(C#N)c2nc3ccccc3nc2N2CC(C)OC(C)C2)c1 (configuration not stated) = -4% | -7% | -4% | -2% | 65%[activator] | -2 | u | -3%

# (more compounds)
SMILES,TrxR1 substrate,rTrxR1 inhibitor,IDH1 R132H inh,Pin1 inhibitor,GLS inhibitor,PI4K2A block,USP1-UAF1 inh,PGK inhibitor
COc1cc(CN2CC(C)OC(C)C2)cc(OC)c1 (configuration not stated),3%,-2%,-7%,-1%,0%,1,3%,-2%
Cc1ccc(NC(=O)CN(C)S(=O)(=O)c2cccs2)c(Br)c1,3%,15%[0.457 µM],10%,14%,3%,2,-25%,i
CCc1ccc(C(=O)CSc2n[nH]c(C)n2)cc1,9%,u,2%,2%,1%,8,-5%,4%
O=C(CSc1nnc(-c2ccco2)n1Cc1ccccc1)NC(=O)NCc1ccccc1,0%,-8%,1%,-5%,0%,4,-16%,5%
COC(=O)c1ccc(CSc2n[nH]c(-c3ccccc3)n2)o1,2%,17%,1%,-1%,-2%,1,-6%,x
Nc1nc(SCC(=O)c2ccc([N+](=O)[O-])cc2)n[nH]1,-6%,u,-5%,-16%,21%,-6,3%,i
O=c1c2cccc(Cl)c2nc2n1Cc1ccccc1-2,3%[57.1 µM],u,15%,1%,13µM*,-25,-14%,i
COCc1ccc(CN2CCCC(CO)(Cc3cccc(OC)c3)C2)o1 (configuration not stated),-3%,-20%,-4%,2%,7%,-3,7%,2%
Cc1cccc(-n2c(O)c(C=Nc3c(C)n(C)n(-c4ccccc4)c3=O)c3ccccc3c2=O)n1,-11%,-1%,-4%&9%,17%&3%,-11%&-12%,1&3,7%&-20%,-7%
CC(C)Oc1ccc(CSc2ncn[nH]2)cc1,-13%[57.1 µM],29%[57.1 µM],6%,4%,-3%,-3,-10%,i
O=C(CCCn1cnc([N+](=O)[O-])n1)Nc1cccc2ccccc12,-2%,0%,-1%,3%,3%,-8,-12%,0%
O=[N+]([O-])c1ccccc1-c1nc(-c2ccc(Br)o2)no1,-8%[11.4 µM],u,8%,3%,-3%,-3,-18%,i
COc1cccc2cc(-c3nc4ccc(C)cc4[nH]3)c(=O)oc12,-11%[57.1 µM],-8%[57.1 µM],6%,-1%,-2%,-3,u,-9%
Cc1ccccc1-c1ccc(C=Nc2c(C)n(C)n(-c3ccccc3)c2=O)o1,-7%,-10%,4%,31%[activator],-10%,-2,u,0%
O=C(Nc1cc(C(F)(F)F)ccc1Cl)C(Sc1nnc(-c2cccs2)o1)c1ccccc1 (configuration not stated),0%,5%,1%,0%,-2%,-2,-18%,1%

# An excerpt, so the mix of outcomes need not match the whole.
